VDR inh – Inhibitors of the vitamin D receptor (VDR): qHTS | Vitamin D3 receptor (Homo sapiens), P11473 | Potency, µM, inactives show max response, negative = inhibition, hits mostly inhibitors | AID 504847, 2011 | 400,000 tested, 0.93% active | VDR-SRC2-3 peptide fluorescence polarization, 2 h; active = well fitted inhibition curve with a large enough effect; inconclusive = small, poorly fitted or top-dose-only effect, or another doubt; inactive = no such curve, though single readings can be large or run the other way; also: series mostly up to about 120 µM
Target sequence (P11473 whole entry, looked up): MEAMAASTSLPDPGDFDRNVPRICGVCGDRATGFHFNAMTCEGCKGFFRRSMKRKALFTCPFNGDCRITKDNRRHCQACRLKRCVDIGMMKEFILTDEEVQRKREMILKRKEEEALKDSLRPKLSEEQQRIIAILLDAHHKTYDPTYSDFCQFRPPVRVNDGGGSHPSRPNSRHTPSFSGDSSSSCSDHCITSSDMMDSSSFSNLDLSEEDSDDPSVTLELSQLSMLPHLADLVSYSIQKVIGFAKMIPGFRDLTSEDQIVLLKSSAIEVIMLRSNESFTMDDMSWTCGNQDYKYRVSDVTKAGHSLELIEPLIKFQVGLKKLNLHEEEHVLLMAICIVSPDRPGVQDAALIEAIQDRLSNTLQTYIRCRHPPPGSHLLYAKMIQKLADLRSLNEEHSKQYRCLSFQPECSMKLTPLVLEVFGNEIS
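FP read-out; VDR + SRC2-3 coactivator peptide; 23 nl compound by pintool; 2 h RT incubation; reagents held at 4 deg C, protected from light.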
Starred values were filed as active, the others as inactive; ? = inconclusive; & = joins results of further samples. % is scaled to controls: 0 for no effect and ±100 for the full control effect; potency is read from the fitted curve at half-maximal effect. Only part of the results is shown, so the mix of outcomes need not match the whole.

Start of the data: the first 18 records, ahead of the listing:
smiles | VDR inh
O=C(CSc1ccc(C(F)(F)F)cc1[N+](=O)[O-])N1CCOCC1 | -18%
CN(Cc1nccs1)C(=O)CC1C(=O)NCCN1Cc1ccc(-c2ccccc2)cc1 (centres undefined) | -15%
CN1/C(=C\C(=O)COC(=O)c2nccnc2N)C(C)(C)c2ccccc21 | -5%
COc1ccc(-c2nc(C)c(CCNC(=O)c3ccco3)s2)cc1 | -19%
O=C(CSc1nccn1Cc1ccccc1)Nc1ccc2c(c1)OCCO2 | 5%
C=CCNC(=O)NC(=O)COC(=O)c1nc2nccc(C)n2n1 | -18%
Cc1nnc2ccc(-c3ccc(NS(=O)(=O)c4ccc(F)cc4F)cc3)nn12 | 5%
CCCn1cc(CN2CCC(C(=O)Nc3cccc(-c4cscn4)c3)CC2)c(C)n1 | -13%
O=C(Nc1ccc2c3c(cccc13)CC2)c1cccc([N+](=O)[O-])c1 | -12%
CN(Cc1ccccc1)C(=O)COC(=O)C1=NNC(=O)CC1 | -40%
Cc1ccc(S(=O)(=O)NCCOc2nc(N(C)C)nc(N3CCOCC3)n2)cc1 | -11%
c1ccc(-n2nnnc2-c2cnc(-c3cccnc3)nc2-c2cccs2)cc1 | 2%
N#Cc1nc(-c2ccco2)oc1NCCc1ccccc1 | 4%
Cc1ccc(NS(=O)(=O)c2ccccc2F)cc1S(=O)(=O)N1CCCCC1 | -7%
Cc1ccc(C)c(NC(=O)CSc2nnc(CNC(=O)c3ccco3)o2)c1 | -2%
COc1ccc(N2C(=O)NC3CC2(C)Oc2ccccc23)cc1OC (centres undefined) | 10%
CCCc1nnc(NC(=O)C(=O)NCCN(C)C)s1 | -2%
COc1ccc(CCNC(=O)c2nnn(CC(=O)Nc3ccc(C)cc3C)c2N)cc1OC | 3%

Results, previewed entries included:
smiles | VDR inh
O=C(CSc1ccc(C(F)(F)F)cc1[N+](=O)[O-])N1CCOCC1 | -18%
CN(Cc1nccs1)C(=O)CC1C(=O)NCCN1Cc1ccc(-c2ccccc2)cc1 (centres undefined) | -15%
CN1/C(=C\C(=O)COC(=O)c2nccnc2N)C(C)(C)c2ccccc21 | -5%
COc1ccc(-c2nc(C)c(CCNC(=O)c3ccco3)s2)cc1 | -19%
O=C(CSc1nccn1Cc1ccccc1)Nc1ccc2c(c1)OCCO2 | 5%
C=CCNC(=O)NC(=O)COC(=O)c1nc2nccc(C)n2n1 | -18%
Cc1nnc2ccc(-c3ccc(NS(=O)(=O)c4ccc(F)cc4F)cc3)nn12 | 5%
CCCn1cc(CN2CCC(C(=O)Nc3cccc(-c4cscn4)c3)CC2)c(C)n1 | -13%
O=C(Nc1ccc2c3c(cccc13)CC2)c1cccc([N+](=O)[O-])c1 | -12%
CN(Cc1ccccc1)C(=O)COC(=O)C1=NNC(=O)CC1 | -40%
Cc1ccc(S(=O)(=O)NCCOc2nc(N(C)C)nc(N3CCOCC3)n2)cc1 | -11%
c1ccc(-n2nnnc2-c2cnc(-c3cccnc3)nc2-c2cccs2)cc1 | 2%
N#Cc1nc(-c2ccco2)oc1NCCc1ccccc1 | 4%
Cc1ccc(NS(=O)(=O)c2ccccc2F)cc1S(=O)(=O)N1CCCCC1 | -7%
Cc1ccc(C)c(NC(=O)CSc2nnc(CNC(=O)c3ccco3)o2)c1 | -2%
COc1ccc(N2C(=O)NC3CC2(C)Oc2ccccc23)cc1OC (centres undefined) | 10%
CCCc1nnc(NC(=O)C(=O)NCCN(C)C)s1 | -2%
COc1ccc(CCNC(=O)c2nnn(CC(=O)Nc3ccc(C)cc3C)c2N)cc1OC | 3%
C/C(=N\OC(=O)c1ccc(Br)cc1)c1ccccn1 | -28%
CCOc1cc(CNc2ccc3[nH]c(=O)[nH]c3c2)ccc1OCC(=O)NC(C)(C)C | 3%
CC(C)COc1ccc(C(=O)Nc2cc3nn(-c4ccccc4)nc3cc2Cl)cc1 | -1%
Cc1cccc(N=C2NC(=O)S/C2=C\c2ccco2)c1 | -6%
C=COCCn1c(=N)n(CCC)c2ccccc21 | -5%
CCOc1cc(CNC(=O)c2ccc(C)c(NC(=O)c3nsc4ccccc34)c2)ccc1OC | 8%
COC(=O)CSc1nc(C)c(Oc2ccccc2)c(=O)[nH]1 | 5%
COCCNC(=S)N1CCC(NC(=O)c2ccco2)CC1 | -5%
COc1cc(S(=O)(=O)Nc2ccccc2C)ccc1NC(=O)c1ccncc1 | ?
CN(c1ccccc1)S(=O)(=O)c1cccc(C(=O)Nc2cccc(C(=O)NC3CC3)c2)c1 | -12%
COCc1nnc(NS(=O)(=O)c2ccc(OC)cc2)s1 | 5%
COC(=O)c1ccc2c(c1O)C(=O)c1ccccc1C2=O | -13%
CCN(C[C@H]1N[C@@](C)(C(=O)OC)[C@H]2C(=O)N(Cc3ccccc3)C(=O)[C@@H]12)C(=O)Nc1ccc(C)cc1 | 7%
O=C(Nc1ccc2c(c1)CCCN2C(=O)c1cccs1)c1ccccc1C(F)(F)F | 2%
CC(=O)c1ccc(NC(=O)Cn2c(=O)cc(C)c3c(C)nn(-c4cccc(F)c4)c32)cc1 | 7%
O=C(CSc1ccc2c(c1)OCCO2)Nc1ccc(Cl)cn1 | -20%
O=C(CN1CCN(Cc2cccc(C(F)(F)F)c2)CC1)NCC(=O)Nc1ccc(F)c(F)c1F | -3%
Cc1ccc(SCCNS(=O)(=O)c2ccc3c(c2)OCCO3)cc1 | -15%
COc1cc2c(cc1NC(=O)COC(=O)/C=C/c1ccc([N+](=O)[O-])cc1)oc1ccccc12 | -9%
CC(C)Cn1c(N)c(C(=O)COC(=O)c2cc(C3CC3)nc3ccccc23)c(=O)n(C)c1=O | -1%
CCOc1cccc(-c2nnc(SCC(=O)NC3CC3)n2C)c1 | -13%
CS(=O)(=O)Nc1nnc(C2CCCC2)s1 | 1%
O=C(CSc1nc2ccccc2c(=O)[nH]1)N1CCN(c2ccccc2F)CC1 | 10%
CCOC(=O)C1=C(c2ccccc2)OC(N)=C(C#N)C1c1cccs1 (centres undefined) | -27%
O=C(O)c1cc(Nc2nc(N3CCOCC3)nc(N3CCOCC3)n2)ccc1Cl | -14%
CN(C)c1cccc(NC(=O)NC2(C)CCS(=O)(=O)C2)c1 (centres undefined) | -3%
Cc1ccc(NC(=O)CN(C)C(=O)c2ccc(Cl)nc2)cc1 | -8%
CSc1nsc(/C=C/Nc2ccc(C)cc2)c1C#N | 6%
O=c1ccc2cc(O)c(O)cc2o1 | -10%&2%
CCc1ccc(NC(=O)C(=O)NCC(c2ccc3c(c2)OCO3)N2CCOCC2)cc1 (centres undefined) | 0%
CNC(=S)N/N=C/c1c(C)c(C(=O)c2ccc(F)cc2)n2ccccc12 | -3%
CC1=C(C(=O)OC(C)C)C(c2cccs2)NC(=S)N1 (centres undefined) | -14%

Later entries
molecule	VDR inh
O=C(O)c1ccccc1/C=N/NC(=O)C1CCCC1	0%
Cc1cccc(NC(=O)Cc2ccc(-n3c(C)nc4cccnc43)cc2)c1C	6%
O=C(CCn1nc(-c2ccc(Cl)cc2)c2ccccc2c1=O)Nc1ccc(OC(F)(F)F)cc1	9%
COc1ccc2nc(NC(=O)CSCc3c(C)noc3C)sc2c1	-8%
COc1ccc(Cn2c(=S)[nH]c3cc(C(=O)NCc4cccnc4)ccc3c2=O)cc1	-8%
CCCc1[nH]nc2c1C(c1ccc(OC(=O)N3CCOCC3)cc1)C(C#N)=C(N)O2 (centres undefined)	-17%
CC(C)(CNS(=O)(=O)c1ccc(Br)s1)N1CCOCC1	-8%
O=C(N/C=C/c1ccco1)OCc1ccccc1	-27%
CCCCC(=O)N(Cc1ccc2c(c1)OCO2)Cc1nc2ccccc2c(=O)[nH]1	?
Cc1ccc(S(=O)(=O)N2CCCC2C(=O)OCc2ccco2)cc1 (centres undefined)	2%
COC(=O)[C@H](Cc1ccccc1)NC(=O)Nc1ccc(C)cc1	16%
Cc1c(O)nc2ccccn2c1=O	15%
CCNC(=S)NNC(=O)Cc1ccccc1	21%
COc1ccc(Cl)cc1NC(=O)c1cc(S(=O)(=O)N2CCCC2)cn1C	-16%
Cc1coc2c(C)c3oc(=O)c(CCC(=O)NCCc4ccc(Cl)cc4)c(C)c3cc12	-4%
COc1ccc(N2CC(C(=O)Nc3nc4ccc(OC)cc4s3)CC2=O)cc1 (centres undefined)	-5%
COCCCNC(=S)N1CCN(c2ccc([N+](=O)[O-])cc2)CC1	-2%
OCc1c[nH]c2ccccc12	-1%&1%
COc1ccc(-n2nc3cc(C)c(NC(=O)Cc4ccc(Cl)cc4)cc3n2)cc1	-11%
Cc1cccc(C)c1NC(=O)CN(C)C(=O)C1CCCCC1	-3%
COc1ccc(Cl)cc1NC(=S)NNC(=O)CC(C)C	-6%
COCC(C)NC(=O)c1cccc(Cl)c1 (centres undefined)	11%
CCc1nc2sc3c(=O)[nH]cnc3c2c2c1CSC(C)(C)C2	-24%
COc1nc(-c2ccc(C)cc2)ccc1-c1noc(-c2ccccc2Br)n1	16%
COc1ccc(S(=O)(=O)Nc2cccc3c2O[C@H](CN(C)C(=O)Nc2ccc(C(F)(F)F)cc2)[C@@H](C)CN([C@H](C)CO)C3=O)cc1	-13%
COc1ccc(Cl)cc1NC(=S)N1CCN(c2ncccn2)CC1	-1%
COc1ccc(-c2ocnc2C(=O)Nc2ccccc2N2CCCCC2)cc1	-9%
Cc1ccc(/C=N/N2C(=O)C3C(C2=O)C2C=CC3C23CC3)o1 (centres undefined)	2%
COc1ccc(/C=N\NC(=O)COc2ccc(C(C)(C)C)cc2)cc1Cn1nc(C)cc1C	25%
CO/N=C/C1C(=O)NN=C1c1ccccc1 (centres undefined)	-9%

Some values from the results shown:
COc1ccc(Cl)cc1NC(=S)NNC(=O)CC(C)C in VDR inh: -6%
CCc1nc2sc3c(=O)[nH]cnc3c2c2c1CSC(C)(C)C2 in VDR inh: -24%

(next part)
molecule	VDR inh
COc1ccc(/C=N\NC(=O)/C(=C\Nc2nccc(C)n2)NC(=O)c2ccccc2)cc1	9%
Cc1ccc(O)c(C(CC(=O)NC(C)C)c2ccccc2)c1 (centres undefined)	-7%
O=C(Nc1ccc2c(c1)CCCN2C(=O)c1cccs1)c1c(F)cccc1Cl	12%
Cc1ccc(CNC(=O)CN(C)C2=NS(=O)(=O)c3ccccc32)cc1	-6%
COc1cc(/C=C2/SC(=S)N(Cc3ccccc3)C2=O)cc(Cl)c1O	-25%
COc1ccc(C(=O)NCCNC(=O)c2ccccn2)cc1	1%
CCOc1ccc(NC(=O)Cc2nnc(SCC(=O)N3CCOCC3)n2C)cc1	16%
O=C(CCc1nc(-c2ccccc2)no1)Nc1cc(C(F)(F)F)ccc1Cl	-4%
O=C(c1ccc(CS(=O)(=O)c2ccccc2)o1)N1CCOCC1	-8%
CN(C)CCN(C(=O)C1=COCCO1)c1nc2ccc(F)cc2s1	-20%
COC(=O)c1[nH]c(=O)c2ccccc2c1O	11%
COc1ccc(-c2noc(CSc3nc(N)cc(=O)[nH]3)n2)cc1OC	13%
CCCN1C(=O)C(Cc2nc3ccccc3c(=O)n2-c2ccc(OC)cc2)c2cc(C)ccc21 (centres undefined)	-3%
Cc1c(OC(C)C(=O)NCc2ccncc2)ccc2c3c(c(=O)oc12)CCC3 (centres undefined)	-2%
OC(CN1CCOCC1)Cn1cnc2ccccc21 (centres undefined)	10%
CCOc1cc(N2CCOCC2)c(OCC)cc1NC(=O)c1ccc(OC)c(S(=O)(=O)N2CCOCC2)c1	-2%
COc1cccc(NC(=O)Nc2ccc3c(c2)N(C)C(=O)c2ccccc2S3)c1	19%
COc1cc(NS(=O)(=O)N2CCCC2)cc(OC)c1OC	0%
CCOC(=O)c1sc(NC(=O)c2nc3ncccn3n2)c(C(=O)OC)c1C	-2%
O=C(N/N=C/c1ccccc1)c1cc(-c2ccc3c(c2)OCO3)n[nH]1	4%
CCOC(=O)c1ccc(NC(=O)c2c(NCc3sccc3C)sc3c2CCC(C)C3)cc1 (centres undefined)	-12%
O=C(NCC(=O)N(c1ccccc1)C(C(=O)NC1CCCC1)c1cccnc1)c1ccco1 (centres undefined)	9%
CC1(C)Cc2c(cnn2-c2ccccc2)C(=O)/C1=N\NC(=O)c1ccccc1	-11%
CC1CCCC(C)N1CC(O)COCc1ccccc1 (centres undefined)	28%
Cc1ccc(CNC(=O)CCCc2nnc3n(C)c(=O)c4sccc4n23)cc1	9%
Cn1c(=NCC(O)COc2ccccc2)sc2ccccc21 (centres undefined)	17%
Cc1ccc(/C=C(\NC(=O)c2ccc(C)cc2)C(=O)NCCCn2ccnc2)cc1	-11%
CNC(=O)c1c(NC(=O)CS(=O)(=O)c2ccc(Cl)cc2)sc(C)c1C	-16%
COC(=O)C1=C(C)N(c2ccc(C)c(C)c2)/C(=C/c2ccco2)C1=O	-14%
CCCCN(CC)C(=O)c1ccc2c(c1)OCO2	-11%
CS(=O)(=O)N(Cc1ccccc1)c1ccc(C(=O)N2CCOCC2)cc1	-18%
C/C=C(\C)[C@H](O)C[Si](C)(C)c1ccccc1	7%
O=C1[C@@H]2Cc3c([nH]c4ccccc34)C(c3ccccc3)N2C(=O)CN1C1CCN(Cc2ccccc2)CC1 (some centres undefined)	10%
O=C(O)CC12CC3CC(C1)CC(n1ncc(NCc4ccc(F)cc4Cl)c(Cl)c1=O)(C3)C2	-8%
CCC(=O)Nc1ccccc1C(=O)N1CCOCC1	-13%
O=C(CS(=O)(=O)c1ccccc1)NC1CCCCC1	-7%
CCC(=O)c1ccc(OCC(=O)NCCC2=CCCCC2)c(OC)c1	-1%
O=C(NCC1COc2ccccc2O1)c1ccc(NC(=O)C(c2ccccc2)c2ccccc2)cc1 (centres undefined)	0%
CC12CCC(C/C1=N\OC(=O)c1ccc(F)cc1)C2(C)C (centres undefined)	0%
CCN(CC)CCOC(=O)c1ccc2c(c1)OCCO2	-1%
CC(C)(C)c1cc(C(=O)N/N=C/c2ccc([N+](=O)[O-])s2)n[nH]1	-6%
CCn1cc(C(=O)NCCc2ccc(OC)c(OC)c2)c(=O)c2cc(S(=O)(=O)N3CCC(C)CC3)ccc21	1%
CCOc1ccc(-n2nc3ccc(NC(=O)CC)cc3n2)cc1	0%
Nc1nc(F)cc(N2CCCCCC2)n1	10%
